Methyltransferases: Primary Screen for Target Class Profiling of Small Molecule Inhibitors of Methyltransferases; purified enzyme, MTase-Glo SAH luminescence; active compounds read low; calls only at 40 µM; 25,000 tested, 3.9% active; AID 1745853, 2022; active = -50% or lower on at least one of six enzymes; inconclusive = the cases between; inactive = as a rule above -30% on all six;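 note: enzymes were COMT GAMT GNMT HNMT NNMT and PNMT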
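Each enzyme was assayed with SAM and its substrate. SAH formation detected by MTase-Glo luminescence; single-point 40 uM screen[…].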
Calls only; i = inactive; ? = inconclusive; + = active, no number. % is set by controls: 0 for no effect and ±100 for the full control effect. These rows are one share of the data; rates above refer to the full screens.

SMILES | Methyltransferases
Cc1ccc(CNC(=O)C2(C)Cn3nc(C(=O)NCCN4CCOCC4)cc3C(=O)N2C)cc1 (stereo not drawn) | i
CO[C@H]1C=C2C(CC[C@H](O[C@@H]3O[C@H](CO)[C@@H](O)[C@@H](O)[C@H]3O)C2(C)C)[C@]2(C)CC[C@]3(C)C([C@H](C)C(O)C(C=C(C)C)O[C@@H]4O[C@H](CO)[C@@H](O)[C@@H](O)[C@H]4O)CC[C@@]3(C)C12 (stereo partly drawn) | i
CCCn1c(=O)c2ccc(Cl)cc2n2c(SCc3ccc(C)cc3)nnc12 | i
CCCc1ccc(OCC(=O)N(Cc2nc(-c3cccnc3)no2)C(C)C)cc1 | i
CN1CCCCC1CCNC(=O)c1ccc(N2CCOCC2)nc1 (stereo not drawn) | i
O=c1c2ccccc2n2c(-c3ccc(Cl)cc3)nnc2n1CCc1ccccc1 | i
COCCC1(NS(C)(=O)=O)CCN(S(=O)(=O)c2cc(OC)ccc2OC)CC1 | i
COCCN1CC2(CCCN(Cc3cc(C(C)(C)C)n[nH]3)C2)CCC1=O (stereo not drawn) | i
N=c1sc2c(n1CC(=O)c1ccc([N+](=O)[O-])cc1)CCCC2 | ?
Cc1ccc(C(=O)N2C[C@@H](F)C[C@H]2C(=O)N2CCOCC2)cc1 | i
CCOc1ccc(-c2cc3n(n2)CC(C)(C(=O)NC2CCCCC2)N(CCCOC)C3=O)cc1 (stereo not drawn) | i
CCCN1C(=O)c2c(C(=O)NCc3cc(Br)ccc3OC)ncn2CC1(C)C(=O)NC1CCCC1 (stereo not drawn) | i
CCN1C(=O)C2CC3(CCN(Cc4cnn(CC)c4C)CC3)CN2C1=O (stereo not drawn) | i
CC1CCN(C(=O)c2cc3n(n2)CC(C)(C(=O)NCc2ccccc2)N(C)C3=O)CC1 (stereo not drawn) | i
O=C(CSc1nnc2n(Cc3ccc(F)cc3)c(=O)c3ccccc3n12)NCc1ccccc1 | i
COc1cccc(CN2CCC(Oc3ccc(-c4noc(C5CC5)n4)cc3)C2)c1 (stereo not drawn) | i
COC1CCN(CC2CCCCCN2)CC1 (stereo not drawn) | i
O=C(O)[C@@H]1CN(C(=O)CCCc2cn[nH]c2)C[C@H]1c1ccc2c(c1)OCO2 | i
COCC1CCCN(C(=O)c2cc(Cn3c(C)nc4ccccc43)[nH]n2)C1 (stereo not drawn) | i
COc1cccc(S(=O)(=O)N2CCC3(CC2)CC(OC)CCO3)c1 (stereo not drawn) | i
CC(=O)O[C@H]1C[C@@]2(C)[C@@H](CC[C@H]3[C@@]4(C)C=CC(=O)[C@@H](C)[C@@H]4[C@H](OC(C)=O)C(=O)[C@@]32C)/C1=C(\CCC=C(C)C)C(=O)O | i
CC(C)CCNC(=O)C1(C)Cn2c(c(-n3cccc3)c3ccccc32)C(=O)N1Cc1cccs1 (stereo not drawn) | i
CC(C)/C=C1\NC(=O)C(C(C)C)n2c1nc1c(c2=O)C=CC=CO1 (stereo not drawn) | i
Cc1ccc(N2CCN(S(=O)(=O)c3ccc4c(c3)n(C)c(=O)n4C)CC2)c(C)c1 | i
C[C@H](C(=O)NCCN1CCOCC1)C1CC[C@@]2(C)Cc3sc(CS(=O)(=O)C(C)(C)C)nc3[C@@H](C)[C@@H]2[C@H]1O (stereo partly drawn) | i
CCC1c2ccc(C)n2CCN1C(=O)NCc1cccc(OC)c1 (stereo not drawn) | i
Cc1ccc(CN2C(=O)c3cc4ccccc4n3CC2(C)C(=O)NCCCOC(C)C)cc1 (stereo not drawn) | i
O=C(C1CCCN1C(=O)c1ccccc1)N1CCC(c2ccccc2)CC1 (stereo not drawn) | i
C=C(C)C(=O)OC1C(OC(C)=O)/C(C=O)=C\CC/C(CO)=C/C2OC(=O)C(=C)C21 (stereo not drawn) | i
Cc1ccc(CN2CCCC(C(=O)N3CCN(c4ccccn4)CC3)CCNC(=O)CC2)s1 (stereo not drawn) | i
C=C1C(=O)OC2C1CCC1(C)C(O)CCC(=C)C21 (stereo not drawn) | +
Cc1cccc(NS(=O)(=O)c2cc3c(cc2Cl)n(C)c(=O)n3C)c1 | i
Cc1cc(C)cc(NC(=O)CSc2nnc3n(CC(C)C)c(=O)c4ccccc4n23)c1 | i
CC(=O)Nc1ccc2c(c1)S(=O)(=O)N=C(CC(C)C)N2c1ccccc1 | i
CN(C)CCN1C(=O)c2cc3occc3n2CC1(C)C(=O)NC1CCCCC1 (stereo not drawn) | i
COCCCN1C(=O)c2cc3occc3n2CC1(C)C(=O)NC1CCC(C)CC1 (stereo not drawn) | i

Reformatted: entries from further up.
Compound	Methyltransferases
Cc1ccc(CN2C(=O)c3cc4ccccc4n3CC2(C)C(=O)NCCCOC(C)C)cc1 (stereo not drawn)	i
O=C(C1CCCN1C(=O)c1ccccc1)N1CCC(c2ccccc2)CC1 (stereo not drawn)	i

Later entries:
SMILES | Methyltransferases
Cc1ccc(Cn2c(=O)c3ccccc3n3c(CCC(=O)NCC(C)c4ccccc4)nnc23)cc1 (stereo not drawn) | i
COC(=O)c1ncn2c1C(=O)N(Cc1cccnc1)C(C)(C(=O)NCc1ccccc1OC)C2 (stereo not drawn) | i
O=C(NCC(O)CO)c1ccc(OC2CCN(CCc3ccccc3)CC2)cc1 (stereo not drawn) | i
Cc1noc(C)c1CN1CCN(C(=O)C2CCCN2)CC1 (stereo not drawn) | i
Cc1cc2c(cc3n2CC(C)(C(=O)NC2CCCCCCC2)N(Cc2ccc(Cl)cc2)C3=O)o1 (stereo not drawn) | i
CCc1ccc(C(=O)COC(=O)C(Cc2c[nH]c3ccccc23)NC(=O)c2ccc(Br)cc2)cc1 (stereo not drawn) | i
C=CCn1c(=O)c2ccc(C(=O)NCC(C)C)cc2n2c(=O)n(CC(=O)Nc3cccc(F)c3)nc12 | i
CCC(C)N1Cc2cc(NC(=O)c3ccc([N+](=O)[O-])cc3)ccc2OCC1=O (stereo not drawn) | i
CC(C)CCNC(=O)C1(C)Cn2c(cc3ccccc32)C(=O)N1Cc1ccccc1 (stereo not drawn) | i
Cc1ccccc1CN1CC(=O)N(Cc2cccc(F)c2)c2ccccc2S1(=O)=O | i
CCN1C(=O)c2cc(C(=O)NCCN3CCCCC3)nn2CC1(C)C(=O)NC1CCCC1 (stereo not drawn) | i
COc1ccc(O[C@@H]2O[C@H](CO)[C@@H](O)[C@H](O)[C@H]2O)cc1OC | i
OC[C@H]1O[C@@H](OC[C@H]2O[C@@H](OC/C=C/c3ccccc3)[C@H](O)[C@@H](O)[C@@H]2O)[C@@H](O)[C@@H]1O | i
CC(C)n1cnc2c(Nc3cccc(Cl)c3)nc(NCCO)nc21 | i
O=C(NC1Cc2ccccc2N(C[C@@H](O)CO)C1=O)c1cc2cc(Cl)sc2[nH]1 (stereo partly drawn) | i
CCCSCCCN1C(=O)c2cc3oc(C)cc3n2CC1(C)C(=O)NC1CCCCC1 (stereo not drawn) | i
O=C(c1nc(-c2ccc(Cl)cc2Cl)c2cnccn12)N1CCOCC1 | i
Cc1ccc(CN2CCC([C@@H]3CNC[C@H]3CO)CC2)s1 | i
Cc1ccccc1CNC(=O)Cn1ccc2cc(S(=O)(=O)N3CCC(C)CC3)ccc21 | i
Cc1ccc(NC(=O)N2CCn3c(C)ccc3C2C(C)C)c(Cl)c1 (stereo not drawn) | i
C[S+](CC[C@H](N)C(=O)[O-])C[C@H]1O[C@@H](n2cnc3c(N)ncnc32)[C@H](O)[C@@H]1O (stereo partly drawn) | i
CCCN1CCN(C(=O)c2cc3n(n2)CC(C)(C(=O)NC2CCCCCC2)N(C)C3=O)CC1 (stereo not drawn) | i
CC1(C)COC(=O)[C@@H]1O[C@@H]1O[C@H](CO)[C@@H](O)[C@H](O)[C@H]1O | i
CC1CCN(S(=O)(=O)c2ccc3c(ccn3CCC(=O)NCCc3cccs3)c2)CC1 | i

In the list so far, these contain an aryl methoxy group.
SMILES | Methyltransferases
COCCC1(NS(C)(=O)=O)CCN(S(=O)(=O)c2cc(OC)ccc2OC)CC1 | i
CCCN1C(=O)c2c(C(=O)NCc3cc(Br)ccc3OC)ncn2CC1(C)C(=O)NC1CCCC1 (stereo not drawn) | i
COc1cccc(CN2CCC(Oc3ccc(-c4noc(C5CC5)n4)cc3)C2)c1 (stereo not drawn) | i
COc1cccc(S(=O)(=O)N2CCC3(CC2)CC(OC)CCO3)c1 (stereo not drawn) | i
CCC1c2ccc(C)n2CCN1C(=O)NCc1cccc(OC)c1 (stereo not drawn) | i
COC(=O)c1ncn2c1C(=O)N(Cc1cccnc1)C(C)(C(=O)NCc1ccccc1OC)C2 (stereo not drawn) | i
COc1ccc(O[C@@H]2O[C@H](CO)[C@@H](O)[C@H](O)[C@H]2O)cc1OC | i

The results go on:
SMILES | Methyltransferases
CC1(C(=O)NCc2ccc(F)cc2)Cn2cnc(C(=O)NCc3ccc(F)cc3)c2C(=O)N1C1CC1 (stereo not drawn) | i
CCCCNc1nc2c(-c3ccccc3)nnn2c2ccccc12 | i
Cc1csc(S(=O)(=O)N2CC[C@@H]3[C@@H](CCC(=O)N3CCN)C2)c1 | i
O=C1Nc2ccccc2C12CN([S+](=O)([O-])c1ccccc1)C2 | i
COc1ccccc1-c1nocc1CCC(=O)O | i
Cn1c(=O)c2ccc(C(=O)NC3CCCCC3)cc2n2c(SCc3ccccc3)nnc12 | i
CC1(C(=O)NC2CCCC2)Cn2c(c(-n3cccc3)c3ccccc32)C(=O)N1Cc1cccnc1 (stereo not drawn) | i
CCOc1ccc(C2c3cccn3-c3sc4c(c3CN2C(=O)Nc2ccc(C(=O)OC)cc2)CCCC4)cc1 (stereo not drawn) | i
COc1ccc(CNC(=O)c2ccc3c(=O)nc4c(-c5ccccc5F)n[nH]n4c3c2)cc1 | i
CCN1C(=O)c2cc(C(=O)NCCCN3CCN(C)CC3)nn2CC1(C)C(=O)NC1CCCC1 (stereo not drawn) | i
COc1ccc(CCN(C)CCc2ccc(OC)c(OC)c2)cc1OC | i
CC1(C(=O)NC2CCCC2)Cn2c(ccc2-c2ccco2)C(=O)N1Cc1cccnc1 (stereo not drawn) | i
CC1(C)CN(C(=O)c2ccc(Oc3ccccc3)o2)CC1(C)O (stereo not drawn) | i
CCCN1C(=O)c2c(C(=O)NCc3cccs3)ncn2CC1(C)C(=O)NCCC(C)C (stereo not drawn) | i
CC(C)OCCCNC(=O)C1(C)Cn2c(cc3ccccc32)C(=O)N1Cc1ccccc1Cl (stereo not drawn) | i
C/C1=C\CC(C)(C)/C=C/C/C(C(=O)O)=C/CC1 | i
CCCN1C(=O)c2cc(C(=O)NCc3cccc(C)c3)nn2CC1(C)C(=O)NC1CCCC1 (stereo not drawn) | i
O=C(Nc1cccc2cccnc12)c1ccc(N2C(=O)[C@@H]3C4C=CC(C4)[C@@H]3C2=O)cc1 | i
CCc1ccc(CN2C(=O)c3c(C(=O)OC)ncn3CC2(C)C(=O)NC2CCCC2)cc1 (stereo not drawn) | i
CCC(C)NC(=O)c1ccc2c(=O)n(C)c3nnc(SCc4cc(C)ccc4C)n3c2c1 (stereo not drawn) | i
CCc1ccc(Cc2ccc3c(c2)[C@]2(OC3)O[C@H](CO)[C@@H](O)[C@H](O)[C@H]2O)cc1 | i
Cc1ccc(NC(=O)CN(C)S(=O)(=O)c2ccc3[nH]c4c(c3c2)CCCC4)cc1F | i
CC(=O)N1CCCC1c1nnc2n1CCNC2 (stereo not drawn) | i
C[C@@H]1C[C@@H]2O[C@H]2/C=C\C=C\C(=O)Cc2c(Cl)c(O)cc(O)c2C(=O)O1 | ?

In the list so far, 2 have a tert-butyl group:
SMILES | Methyltransferases
COCCN1CC2(CCCN(Cc3cc(C(C)(C)C)n[nH]3)C2)CCC1=O (stereo not drawn) | i
C[C@H](C(=O)NCCN1CCOCC1)C1CC[C@@]2(C)Cc3sc(CS(=O)(=O)C(C)(C)C)nc3[C@@H](C)[C@@H]2[C@H]1O (stereo partly drawn) | i

Next section:
SMILES | Methyltransferases
CC1(C(=O)NC2CCCCC2)Cn2c(nc3ccccc32)C(=O)N1CCc1ccc(Cl)cc1 (stereo not drawn) | i
Cc1cc(C)cc(NC(=O)Cn2nc3n(C(C)C)c(=O)c4ccc(C(=O)NCC(C)C)cc4n3c2=O)c1 | i
Cc1nc(-c2c3n(c(=O)n(Cc4ccccc4C(F)(F)F)c2=O)CCCCC3)no1 | i
CC(=O)O[C@@H]1C[C@H](O)[C@@]23CO[C@H](O)[C@]1(C)C2C[C@@H](O)[C@]1(C)C3C(=O)[C@H](OC(C)=O)[C@@]2(C)[C@H](c3ccoc3)C[C@H]3O[C@]321 (stereo partly drawn) | i
CCCCC#Cc1nc(NC)c2ncn([C@@H]3O[C@H](CO)[C@@H](O)[C@H]3O)c2n1 | i
O=C(c1ccccn1)N1CCC(N2CCCC2=O)CC1 | i
CCOC(=O)c1cc2n(n1)CC(C)(C(=O)NCCOC)N(c1ccc(OCC)cc1)C2=O (stereo not drawn) | i
CCOC(=O)c1cc2n(n1)CC(C)(C(=O)NCCC(C)C)N(c1ccccc1OC)C2=O (stereo not drawn) | i
COC(=O)c1ncn2c1C(=O)N(CCc1ccc(OC)c(OC)c1)C(C)(C(=O)NC1CCCCC1)C2 (stereo not drawn) | i
CNc1nc(C(=O)N2CCc3nc(-c4ccccc4)[nH]c3C2)cs1 | i
C=C1CCC2[C@](C)(CO)CCC[C@@]2(C)[C@@H]1CCC1=CCOC1=O (stereo partly drawn) | i
CCOc1ccc(Cl)cc1CN(C)C(=O)C1CC(=O)N(CC)C1 (stereo not drawn) | i
O=C(CC(c1ccccc1)c1ccccc1Cl)N1CCOCC1 (stereo not drawn) | i
CC1=C2C3OC(=O)C(C)C3(O)CCC2(C)CCC1O (stereo not drawn) | ?
CN1CCCN(C(=O)CN2CC3CC(C2)[C@H]2CCCC(=O)N2C3)CC1 (stereo partly drawn) | i
CCCCN1C(=O)c2cc3ccccc3n2CC1(C)C(=O)NC1CCCCCC1 (stereo not drawn) | i

Compound activity as filed in PubChem BioAssay.
